2A firefly: FMDV 2A StopGo reporter, firefly signal | AID 1745856 | HEK cells with a luciferase reporter of 2A StopGo recoding | Potency, µM (highest dose often 57.5 µM), for the others: at the top dose signal change, negative = less light | 0.23% of 120,000 active; active = well fitted falling curve with a large enough effect; inconclusive = small, poorly fitted or top-dose-only effect; inactive = no such curve, though single readings can be large or run the other way; also: nearly all actives have a fitted effect of over 60% in size; overnight with compound
StopGo RLuc: lowers the Renilla signal of an FMDV 2A StopGo reporter | HEK cells with a luciferase reporter of 2A StopGo recoding | Potency, µM (top dose mostly 57.5 µM), without a hit: at the highest dose signal change, negative = less light | 0.32% of 120,000 active; active means well fitted falling curve with a large enough effect; inconclusive means small, poorly fitted or top-dose-only effect; inactive means no such curve, though single readings can be large or run the other way; also: nearly all actives have a fitted effect of over 55% in size; overnight with compound
* hit, by the source's call; & = joins results of further samples; [ ] = dose if it differs, or a comment. % is scaled to controls: 0 for no effect and ±100 for the full control effect; potency is read from the fitted curve at half-maximal effect.

`CCc1ccccc1N/C=C(\C#N)c1nc(-c2ccc(C)cc2C)cs1` gave 2A firefly 0% and StopGo RLuc 5%.
CCOC(=O)C1CCCN(CCN(C)C)C1 (stereo not drawn) was read as 2A firefly -10% and StopGo RLuc -6%.
For COC(=O)N(C)CC(=O)NC1CCC(C)CC1 (stereo not drawn) the results were 2A firefly 68%[activator] and StopGo RLuc 10%.
For Cc1ccnc(NC(=O)CCc2ncc(-c3ccccc3)o2)c1 the results were 2A firefly 189%[activator] and StopGo RLuc 9%.
For CCc1ccc(-c2cc(C(F)(F)F)on2)cc1S(=O)(=O)Nc1cc(OC)ccc1OC the results were 2A firefly 20% and StopGo RLuc 254%[activator].
`O=C(c1cc2ccccc2oc1=O)N1CCCC(C(F)(F)F)C1` (stereo not drawn) gave 2A firefly -2% and StopGo RLuc -3%.
For Cc1ccc2c(c1)C(c1ccccc1)N(C(=O)COc1ccc(Cl)cc1Cl)CC(=O)N2 (stereo not drawn) the results were 2A firefly -23% and StopGo RLuc -1%.
For COc1ccc(C)cc1NC(=O)C(C)N1CCN(S(=O)(=O)Cc2ccccc2)CC1 (stereo not drawn) the results were 2A firefly -15% and StopGo RLuc -6%.
Screening CCOc1ccc(N(C(C)C(=O)NCCSc2ccc(C)cc2)S(C)(=O)=O)cc1 (stereo not drawn) returned 2A firefly -9% and StopGo RLuc 21%.
Screening N#C/C(=C/c1ccc(OC(F)F)cc1)c1ccccn1 returned 2A firefly 78%[activator] and StopGo RLuc -9%[1.06 µM].
`COc1ccc(-c2nc(SCC(=O)NC3CCCC3)c(-c3ccc(OC)cc3)[nH]2)cc1` gave 2A firefly 10%&-2% and StopGo RLuc 146%&135%[activator].
CCOC1C(C2COC3(CCCCC3)O2)OC2OC3(CCCCC3)OC21 (stereo not drawn) was read as 2A firefly 16% and StopGo RLuc 8%.
`CCOC(=O)N1CCc2c(sc3c2c(=O)n(Cc2ccccc2)c(=O)n3Cc2c(F)cccc2Cl)C1` gave 2A firefly -1% and StopGo RLuc -6%.
`CC(=O)Oc1cc(OC(C)=O)c2c(C)c(CC(=O)NC(C)c3ccccc3)c(=O)oc2c1` (stereo not drawn) gave 2A firefly 11% and StopGo RLuc 32%[activator].
COc1ccccc1-c1nnc(SCC(=O)N(CC(C)C)CC(C)C)n1N was read as 2A firefly -15% and StopGo RLuc -14%.
CCOc1ccc(NC(=O)NCc2nc(-c3cccc(Cl)c3)oc2C)cc1 was read as 2A firefly 18% and StopGo RLuc 6%.
For CCOc1ccc(NC(=O)Cn2cc(S(=O)(=O)NC)c(S(=O)(=O)NC)c2)cc1 the results were 2A firefly -15% and StopGo RLuc 7%.
CCOC(=O)c1cc2c(=O)n3ccccc3nc2n(CC2CCCO2)c1=NC(=O)c1ccccc1C (stereo not drawn) was read as 2A firefly -17% and StopGo RLuc 30%.
`CC(C)CCn1c(=O)c2sccc2n2c(CCCC(=O)Nc3ccc(C(C)C)cc3)nnc12` gave 2A firefly -17% and StopGo RLuc -11%.
`COc1ccccc1N1CCN(CC(=O)Nc2ncc3c(n2)CC(C)CC3=O)CC1` (stereo not drawn) gave 2A firefly 5% and StopGo RLuc -7%.
Screening CN(CCO)C1CN(Cc2cn(Cc3ccccc3F)nn2)S(=O)(=O)C1 (stereo not drawn) returned 2A firefly 0% and StopGo RLuc 0%.
For O=C(NCc1cccnc1)C(=O)NCC(c1cccnc1)N1CCN(c2ccc(F)cc2)CC1 (stereo not drawn) the results were 2A firefly -6% and StopGo RLuc 1%.
COC(=O)CSc1ncn(-c2nc(NC(C)C)nc(N(C)C)n2)n1 was read as 2A firefly 56%[activator] and StopGo RLuc 39%[activator].
Cc1cc(C)cc(NC(=O)C(Cc2ccccc2)N2Cc3ccccc3C2=O)c1 (stereo not drawn) was read as 2A firefly -14% and StopGo RLuc -2%.
COc1ccc(-c2cc3ncc(C(=O)c4cc(Cl)c(C)cc4O)cn3n2)cc1 was read as 2A firefly 0% and StopGo RLuc -7%.
Screening CCCCCCCCCCCCS(=O)(=O)CC(O)c1ccccc1 (stereo not drawn) returned 2A firefly -2% and StopGo RLuc 0%.
Screening COc1ccc2[nH]cc(CCNC(=O)c3cnn(-c4ccccc4Cl)c3C3CCN(C(=O)OC(C)(C)C)CC3)c2c1 returned 2A firefly -5% and StopGo RLuc -6%.
COC(=O)c1cccc(Nc2c(-c3ccc(OC)cc3)nc3nc[nH]n23)c1 was read as 2A firefly 127%[activator] and StopGo RLuc 55%[activator].
`CCC(Oc1ccccc1)C(=O)Nc1cc(C(=O)OCc2cc(=O)n3oc(C)cc3n2)ccc1OC` (stereo not drawn) gave 2A firefly -2% and StopGo RLuc -13%.
Screening Cc1nn2c(C)c(C(=O)NC(C)c3ccccc3)cnc2c1-c1ccc(F)cc1 (stereo not drawn) returned 2A firefly inconclusive and StopGo RLuc -19%.
Cc1cc(C)c(S(=O)(=O)Nc2cc(-c3cn4ccccc4n3)ccc2C)cc1C was read as 2A firefly 2% and StopGo RLuc 168%[activator].
Screening O=C(O)c1cccc(NC(=O)c2cccc(S(=O)(=O)Nc3cccc(C(=O)O)c3)c2)c1 returned 2A firefly -12% and StopGo RLuc -9%.
Screening CC(C)(C)OC(=O)N1CCN(C(=O)c2cc(-c3ccncc3)nc3ccccc23)CC1 returned 2A firefly 6% and StopGo RLuc 2%.
For COc1ccc(CCNC(=O)CSc2nc(Cl)nc3nc[nH]c23)cc1OC the results were 2A firefly 7% and StopGo RLuc -3%.
`CN1CCN(c2ccc3cc(S(=O)(=O)N4CCCC4)ccc3n2)CC1` gave 2A firefly 10% and StopGo RLuc 35%[activator].
Screening CC(=O)N(C(C)=O)c1c(N2CCCC2)c2ccccc2oc1=O returned 2A firefly 23% and StopGo RLuc 13%.
`Cc1noc2ncnc(NCc3ccccc3Cl)c12` gave 2A firefly -1% and StopGo RLuc inconclusive.
`O=C(Nc1ccc(F)c(F)c1F)c1ccc2ccccc2n1` gave 2A firefly 135%[activator] and StopGo RLuc 0%.
For C=CCOc1ccc(C(=O)NCC(F)(F)F)cc1 the results were 2A firefly 70%[activator] and StopGo RLuc 11%.
`CN(C)Cc1nc(SCC(=O)Nc2ccc(I)cc2)c2ccccc2n1` gave 2A firefly -1% and StopGo RLuc -5%.
CCOc1ccc(NC(=O)c2c(NC(=O)c3ccco3)sc3c2CCC(C(C)(C)C)C3)cc1 (stereo not drawn) was read as 2A firefly 0% and StopGo RLuc -11%.
Screening CNC(=O)c1cccc(CNC(=O)C(C)(C)NC(=O)OC(C)(C)C)c1 returned 2A firefly 15% and StopGo RLuc 10%.
For COc1cc(C(=O)Nc2ccccc2OCc2cc(=O)n3c(C)csc3n2)cc(OC)c1OC the results were 2A firefly -16% and StopGo RLuc -6%.
Screening CC(=O)c1c(C)[nH]c(C(=O)OCc2cc(=O)oc3cc(C)c(C(C)C)cc23)c1C returned 2A firefly 3% and StopGo RLuc -3%.
Cn1nc(C(=O)N2CCN(c3cccc(Cl)c3)CC2)c2ccccc2c1=O was read as 2A firefly -20% and StopGo RLuc -16%.
`CCNC(=O)NC(=O)C(C)NC(C)c1cccc(C(F)(F)F)c1` (stereo not drawn) gave 2A firefly 7% and StopGo RLuc 3%.
For CCCCC(CC)CNC(=O)CCCCCn1c(=O)[nH]c2ccsc2c1=O (stereo not drawn) the results were 2A firefly -13% and StopGo RLuc 20%.
For COc1ccc(S(=O)(=O)Nc2cccc(-c3ccc(N4CCCCC4)nn3)c2)c(OC)c1 the results were 2A firefly 100%[activator] and StopGo RLuc 200%[activator].
Screening CCN(C(=O)CCS(=O)(=O)c1cc(Br)cc2c1N(C(=O)C1CC1)CC2)c1cccc(C)c1 returned 2A firefly -8% and StopGo RLuc 17%.
`COC(=O)c1cc2occc2n1Cc1nc(-c2ccccc2C)oc1C` gave 2A firefly 13% and StopGo RLuc 5%.
For Cc1ccc(-c2c(NC(=O)CN3CCC(C(N)=O)CC3)oc3ccc(Cl)cc3c2=O)cc1 the results were 2A firefly 0% and StopGo RLuc -15%.
CCc1ccc(NC(=O)CCCc2nnc3n(C(C)CC)c(=O)c4sccc4n23)cc1 (stereo not drawn) was read as 2A firefly -13% and StopGo RLuc -2%.
`CC(C)C(=O)N/N=C/c1ccc(Br)cc1` gave 2A firefly 0% and StopGo RLuc 26%.
Cc1cccc(-c2nc(C)c(CCNC(=O)C(=O)Nc3c(C)cc(C)cc3C)s2)c1 was read as 2A firefly 0% and StopGo RLuc -1%.
Screening Cc1cccc2sc(N(Cc3cccnc3)C(=O)c3ccc(Cl)s3)nc12 returned 2A firefly 15% and StopGo RLuc 6%.
`CCCc1noc(CCC(=O)Nc2ccc(OC)c(OC3CCCC3)c2)n1` gave 2A firefly 3% and StopGo RLuc -2%.
For COc1ccc(-n2c(=O)c3c4c(sc3n(Cc3ccccc3)c2=O)CCC4)c(OC)c1 the results were 2A firefly -24% and StopGo RLuc -4%.
Screening Cc1nc(C)c(-c2ccc(SCC(=O)Nc3ccc(Br)cc3)nn2)s1 returned 2A firefly inconclusive and StopGo RLuc 2.8µM*.
CCC(C)(C(=O)NC1CCCC1)N(C)C(=O)Cc1cccs1 (stereo not drawn) was read as 2A firefly 13% and StopGo RLuc 5%.
`Cn1ncc2c(N3CCN(c4cccc(Cl)c4)CC3)ncnc21` gave 2A firefly -1% and StopGo RLuc -6%.
CC(C)(C)c1ccc(OCC(=O)NCC2(N3CCOCC3)CCCCC2)cc1 was read as 2A firefly inconclusive and StopGo RLuc -50%.
`COc1cc(OC)cc(C(=O)N(CC#N)C2CC2)c1` gave 2A firefly 0% and StopGo RLuc 15%.
Cn1c2ccccc2c2cnn(CC(=O)NCCCN3CCCCC3)c(=O)c21 was read as 2A firefly -16% and StopGo RLuc -2%.
For Cc1nc(-c2ccc(F)cc2)sc1CCNC(=O)c1ccccc1 the results were 2A firefly 118%[activator] and StopGo RLuc 20%.
For CN(C)C1(CNC(=O)C2CCN(C(=O)c3ccc(F)cc3)CC2)CCCCC1 the results were 2A firefly -10% and StopGo RLuc -11%.
`COc1ccc(NCc2cc3cc4c(cc3n(CC(=O)Nc3ccc(F)cc3F)c2=O)OCO4)cc1` gave 2A firefly 24% and StopGo RLuc -4%.
NS(=O)(=O)c1ccc(NN=C2CCCC2)c([N+](=O)[O-])c1 was read as 2A firefly 22% and StopGo RLuc -4%.
`CN(C)c1ccc(CN(Cc2ccco2)C(=O)COc2ccc(F)cc2)cc1` gave 2A firefly -5% and StopGo RLuc -12%.
Cn1ccnc1C(NC(=O)c1nn(C)c(=O)c2ccccc12)c1ccc(F)cc1 (stereo not drawn) was read as 2A firefly 38%[activator] and StopGo RLuc 38%[activator].
For CC(NC(=O)c1n[nH]c(=O)c2ccccc12)c1ccco1 (stereo not drawn) the results were 2A firefly 4% and StopGo RLuc -8%.
O=C(Nc1nc2ccc(Cl)cc2s1)c1cc(=O)c2ccccc2o1 was read as 2A firefly 36%&3%[activator] and StopGo RLuc 8%&-5%.
`Cc1ccc(-c2cc(C(=O)N3CCOC(C)C3)n[nH]2)s1` (stereo not drawn) gave 2A firefly 178%[activator] and StopGo RLuc -19%.
Screening O=C(c1cc(F)cc(F)c1)N1CCSc2ccc(Cl)cc21 returned 2A firefly -1% and StopGo RLuc 2%.
`Cc1ccc(C)c(NC(=O)c2nc3ccccc3nc2N2CCOCC2)c1` gave 2A firefly 5% and StopGo RLuc 1%.
Screening CCOc1ccccc1C(=O)Nc1c(C(=O)Nc2ccc(F)cc2)oc2ccccc12 returned 2A firefly 23% and StopGo RLuc 11%.
Screening CCc1nn2c(=O)cc(COc3ccc(/C=C(\C#N)C(=O)Nc4ccc(F)cc4)cc3OC)nc2s1 returned 2A firefly -18% and StopGo RLuc -17%.
`Cc1ccc(C2C(C#N)=C(N)Oc3c2ccc2ccccc32)cc1` (stereo not drawn) gave 2A firefly 211%[activator] and StopGo RLuc 83%[activator].
CN(C(=O)Cn1nc(Cc2cccnc2)c2ccccc2c1=O)c1cccc(C(F)(F)F)c1 was read as 2A firefly -5%&-19% and StopGo RLuc 0%&1%.
CCn1ncc2c(C(=O)Nc3ccc(OC(F)F)cc3)cc(-c3cccs3)nc21 was read as 2A firefly 11% and StopGo RLuc -5%.
Screening O=C(NCCc1ccccn1)C1CCC1 returned 2A firefly 10% and StopGo RLuc 0%.

Five entries drawn at random from the list so far:
Screening CCOc1ccccc1C(=O)Nc1c(C(=O)Nc2ccc(F)cc2)oc2ccccc12 returned 2A firefly 23% and StopGo RLuc 11%.
For COc1ccc(CCNC(=O)CSc2nc(Cl)nc3nc[nH]c23)cc1OC the results were 2A firefly 7% and StopGo RLuc -3%.
CN(C(=O)Cn1nc(Cc2cccnc2)c2ccccc2c1=O)c1cccc(C(F)(F)F)c1 was read as 2A firefly -5%&-19% and StopGo RLuc 0%&1%.
Screening Cc1cccc2sc(N(Cc3cccnc3)C(=O)c3ccc(Cl)s3)nc12 returned 2A firefly 15% and StopGo RLuc 6%.
`CN1CCN(c2ccc3cc(S(=O)(=O)N4CCCC4)ccc3n2)CC1` gave 2A firefly 10% and StopGo RLuc 35%[activator].

Arranged by molar mass (ascending): part of the list above
`Cc1ccc(-c2cc(C(=O)N3CCOC(C)C3)n[nH]2)s1` (stereo not drawn) gave 2A firefly 178%[activator] and StopGo RLuc -19%.
NS(=O)(=O)c1ccc(NN=C2CCCC2)c([N+](=O)[O-])c1 was read as 2A firefly 22% and StopGo RLuc -4%.
For Cc1nc(-c2ccc(F)cc2)sc1CCNC(=O)c1ccccc1 the results were 2A firefly 118%[activator] and StopGo RLuc 20%.
